D2 ag: activates the human D2 dopamine receptor. 0.084% of 360,000 active. P14416. activation, % (no concentration beside the values). DiscoveRx PathHunter D2 beta-arrestin, luminescence, 90 min; 100% = 57 uM dopamine signal. AID 624465; in the data active = activation above about 40%; inconclusive = about 15% to 40%; inactive = below about 15%; note: compound concentration not given in the record; the text of the record calls up to 30% inactive
Target sequence (P14416 whole entry, looked up): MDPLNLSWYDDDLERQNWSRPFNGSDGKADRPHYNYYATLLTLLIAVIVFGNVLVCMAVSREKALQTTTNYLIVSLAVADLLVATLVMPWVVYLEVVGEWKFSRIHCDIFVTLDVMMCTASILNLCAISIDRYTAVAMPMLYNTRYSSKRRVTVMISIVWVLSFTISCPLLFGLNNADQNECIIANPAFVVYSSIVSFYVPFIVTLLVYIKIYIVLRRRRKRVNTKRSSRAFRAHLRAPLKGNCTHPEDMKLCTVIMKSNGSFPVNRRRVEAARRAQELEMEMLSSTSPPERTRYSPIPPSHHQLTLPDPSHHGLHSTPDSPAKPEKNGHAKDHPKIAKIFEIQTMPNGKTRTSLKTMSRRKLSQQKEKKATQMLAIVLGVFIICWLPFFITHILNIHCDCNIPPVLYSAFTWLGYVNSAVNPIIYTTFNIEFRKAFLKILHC
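Agonist mode: compounds alone added to overnight-plated D2 PathHunter cells for 90 min at 37 C, with 57 uM final dopamine (EC100) defining full response. Beta-arrestin recruitment detected by chemiluminescent reagent, read after 1 h at ambient temperature.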
TRPML1 agonist: activates the human TRPML1 channel; TRPML1-expressing cells, Ca2+ dye fluorescence, FDSS; host cell line not named in the record; reference of the full effect not given here; activation, % (concentration not given with the values); 0.12% of 410,000 active; Q9GZU1; in the data active = activation above about 50%; inconclusive = about 30% to 50%; inactive = below about 30%; note: 0% is about no effect; the text of the record puts the active cut at 80%
Target sequence (Q9GZU1 whole entry, looked up): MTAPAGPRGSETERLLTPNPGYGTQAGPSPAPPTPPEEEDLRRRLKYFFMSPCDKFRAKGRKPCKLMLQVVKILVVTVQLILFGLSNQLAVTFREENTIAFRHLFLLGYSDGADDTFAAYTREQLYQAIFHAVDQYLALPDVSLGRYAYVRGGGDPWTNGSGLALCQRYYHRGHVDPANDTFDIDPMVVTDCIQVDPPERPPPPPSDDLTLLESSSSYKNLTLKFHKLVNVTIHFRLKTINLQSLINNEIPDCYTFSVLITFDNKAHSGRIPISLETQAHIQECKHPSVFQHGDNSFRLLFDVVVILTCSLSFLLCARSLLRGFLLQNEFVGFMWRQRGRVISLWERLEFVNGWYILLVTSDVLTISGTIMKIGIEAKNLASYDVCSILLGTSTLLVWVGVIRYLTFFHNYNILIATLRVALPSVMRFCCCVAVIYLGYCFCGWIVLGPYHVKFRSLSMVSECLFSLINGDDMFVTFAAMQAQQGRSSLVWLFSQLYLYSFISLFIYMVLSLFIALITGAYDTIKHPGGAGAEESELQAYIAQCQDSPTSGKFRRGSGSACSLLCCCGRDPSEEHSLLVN
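In this qHTS format, compounds were pin-transferred onto Ca8-dye-loaded TRPML1-DL cells induced with Tet overnight, and intracellular Ca2+ fluorescence was recorded kinetically for 110 s after a 10 s baseline. A subsequent 4uM final 54-4 (EC80) addition followed by a second 110 s read served as the antagonist phase.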
Six1-Eya2 blk: blocks human Six1 binding to Eya2 | activity change, % (concentration not given with the values) | Q15475+O00167 | AlphaScreen GST-Six1/His-Eya2 binding, biochemical; hits give low values; control for the full effect not named in the record | 0.56% of 360,000 active; in the data active = activity change below about -65%; inconclusive = about -30% to -65%; inactive = above about -30%; note: % is set by controls: 0 for no effect and ±100 for the full control effect
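Six1/Eya2 binding was read as AlphaScreen signal after compounds were pinned into GST-Six1 plus His-tagged Eya2 (5X stock 250/500 nM) in pH 8.0 Tris/NaCl/TCEP buffer, beads added, then incubated 1 h, 37 C, dark.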
PINK1 expr mod: PINK1 expression modulation; PINK1 immunofluorescence, high-content cytometry, 24 h; Potency, µM (doses to about 76.6 µM), without a hit: at the top dose activation (PINK1 increase), most hits filed as activators; 0.2% of 410,000 active; active = well fitted activation curve with a large enough effect; inconclusive = small, poorly fitted or top-dose-only effect; inactive = flat fitted curve, though single readings scatter; cell line not stated here;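 note: potency is the fitted concentration of half-maximal effect; % of control where 0% means no effect; nearly all actives have a fitted effect of over 65% in size; a mitochondrial uncoupler was the plate control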
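Stable cell line, 250 cells/well, 12 h attachment; compounds pinned at 5 concentrations, 24 h; CCCP control. Fixed with nuclear dye, primary antibodies 12 h at 10 degrees C, secondary plus cell stain; laser-scanning cytometer read.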
CtBP-E1A inh: inhibitors of CtBP/E1A interaction. AlphaScreen GST-E1A/His-CtBP binding, 1536-well; hits give low values; control for the full effect not named in the record. 0.49% of 340,000 active. activity change, % (no concentration beside the values). AID 651724; in the data active means activity change below about -65%; inconclusive means about -30% to -65%; inactive means above about -30%; note: % is set by controls: 0 for no effect and ±100 for the full control effect; compound concentration not given in the record
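Homogeneous bead-based format: GST-tagged E1A captured on glutathione donor beads, His-tagged CtBP on nickel acceptor beads; compounds precede bead addition by 2 h at 37 °C.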
D2 PAM: potentiates the human D2 dopamine receptor allosterically. P14416. DiscoveRx D2 beta-arrestin cells, luminescence, 90 min; 100% = 57 uM dopamine signal. potentiation, % (no concentration beside the values). 0.23% of 360,000 active. AID 624464; active = potentiation of 50% or more; inconclusive = 30% to 50%; inactive = 30% or less;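 note: compound concentration not given in the record; tested on top of an EC20 dose of dopamine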
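PathHunter D2 cells, attached overnight at 37 deg C, received compound in DMSO plus dopamine at EC20 (50 nM final) for 90 min at 37 deg C. Beta-arrestin recruitment was read as luminescence after 1 h with detection reagent at ambient temperature.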
An asterisk follows results filed as active; ? = inconclusive; · = not tested or not shown; & = joins results of further samples; [ ] = another dose, or the depositor's remark.

SMILES	D2 ag	TRPML1 agonist	Six1-Eya2 blk	PINK1 expr mod	CtBP-E1A inh	D2 PAM
Nc1ccc2nc(SCC(=O)N3CCOCC3)sc2c1	3.0	2.8	21	1.4%	19	-5
COc1ccc(OC)c(NC(=O)c2c3c(nc4ccccc24)CCC3)c1	-1.9	1.4	-11	2.8%[38.3 µM]	-8	-10
O=C(COC(=O)c1ccc(F)c(S(=O)(=O)N2CCOCC2)c1)Nc1ccc2[nH]c(=O)[nH]c2c1	-2.2	0.3	-20	5.7%	-3	-1
N#CC(c1ccccc1)c1ccc2c(C(F)(F)F)cc(C(F)(F)F)nc2n1 (stereo not given)	-3.1	1.6	-75*	?	-66*	-13
O=C(NCCC1=CCCCC1)c1cc(-c2ccccn2)nc2ccccc12	3.3	2.6	3	-1.1%	-5	1
O=C(NN=Cc1ccc(Cl)cc1Cl)C1CC1	-2.3	4.8	8	-1.5%	-1	-38
COc1cc(/C=N/N2CCOCC2)ccc1OC(=O)c1ccco1	1.1	-0.3	-6	3.8%	-10	2
O=C(NCCc1cccc(Cl)c1)c1cc2ccccc2oc1=O	3.8	0.5	4	-0.4%	15	-5
COc1cc(OC)cc(-c2nc(SCC(=O)Nc3ccccc3F)n[nH]2)c1	2.3	0.7	-7	3.4%	-5	-7
COc1ccc(S(=O)(=O)/N=C2/NC(=O)/C(=C\c3cc(OC)c(OC)cc3[N+](=O)[O-])S2)cc1	4.2	-0.7	-11	-2.1%	-14	-3
O=[N+]([O-])c1cccc(-n2cc3ccc([N+](=O)[O-])cc3n2)c1	6.0	0.4	0	-0.9%	-4	20
O=C(CN1CCN(Cc2ccc3c(c2)OCO3)CC1)Nc1ccc2[nH]c(=O)[nH]c2c1	-0.2	0.5	-23	-0.3%	-12	-28
CCOC(=O)N1CCC2(CC1)NC(=O)c1ccccc1N2	-5.4	-0.7	0	0.6%	3	-10
Cc1ccc(C)c(NC(=O)CN(C)C(=O)c2ccccn2)c1	-4.7	0.2	14	-0.9%	3	-6
CC(=O)N1N=C(c2ccc(Br)cc2)OC1(C)CC(=O)Nc1ccccc1 (stereo not given)	2.9	0.8	-1	1.4%	-16	1
C#CCN1C(=O)S/C(=C\c2ccc(-c3ccc(C(=O)O)cc3C)o2)C1=O	1.6	0.5	-15	-1.4%	0	5
Cc1cc(OCC(=O)N(C)C)c2c(-c3ccccc3)cc(=O)oc2c1	4.9	-0.1	4	6.0%	4	-3
O=C(Cc1ccccc1)Nc1c2c(nn1-c1cccc(Cl)c1)CS(=O)(=O)C2	0.4	-0.2	3	-1.9%[38.3 µM]	7	7
O=C(COC(=O)CCS(=O)(=O)c1ccc(F)cc1)NC1CCCCC1	-3.0	0.0	2	1.5%	1	-3
Cc1cc(=O)[nH]c(N/N=C/C=C/c2ccccc2)n1	-4.2	-0.3	-13	-2.1%	-27	-2
Cc1ccc(OCc2nc(-c3ccccn3)no2)cc1	-0.8	0.2	-9	·	-8	-11
Cc1ccc(OCCNC(=O)c2cc(C3CC3)nc3c2cnn3C(C)C)cc1	2.0	3.8	4	3.5%	2	-1
OCC1(Cc2ccccc2)CCN(Cc2cnn(-c3ccccc3F)c2)CC1	-2.1	-0.5	-4	-0.7%	-2	-18
CC(C)COC(=O)Nc1ccc(C(=O)O)cc1	-1.8	-0.3	2	?	9	-4
Cc1ccc(S(=O)(=O)N2CCC(C(=O)Nc3ccccc3N3CCCC3)CC2)c(C)c1	0.9	3.4	-22	-1.1%	-6	7
CN1CCC(N(C)S(=O)(=O)c2ccc(NC(=O)c3cccc(C#N)c3)cc2)CC1	-4.0	0.4	0	-1.3%	-7	-5
COc1ccccc1-n1c(SCC(=O)N2CCc3ccccc32)nc2c(c1=O)SCC2	5.1	1.3	-2	0.3%	-19	7
O=C(NC1CCCCC1)C(c1ccc2ncccc2c1)N(Cc1ccccc1)C(=O)c1ccc2c(c1)OCCO2 (stereo not given)	-3.1	0.7	-5	-0.7%[38.3 µM]	10	-13
O=C(COC(=O)Cc1n[nH]c(=O)c2ccccc12)Nc1cccc(C(F)(F)F)c1	-3.3	1.1	2	0.5%	-10	-11
Cn1c(=O)n(C)c2cc([N+](=O)[O-])c(N3CCN(C(=O)c4cccc(Cl)c4)CC3)cc21	-11	0.2	?	-0.2%	?	-45
CCC(=O)N1CCCC1(C)C(=O)Nc1ccc2nc(C)ccc2c1 (stereo not given)	-2.9	-0.5	-5	0.7%	7	-13
COc1ccc(COC(=O)C2CCN(S(=O)(=O)c3ccc(Cl)cc3)CC2)cc1	-2.5	1.6	0	0.6%	12	-6
O=C(Nc1ccc(NC(=S)NC(=O)c2ccccc2F)cc1)c1cccs1	1.5	0.2	-11	5.0%	-7	0
O=C(NC(Cc1ccccc1)C(=O)O)/C(=C\c1ccccc1)NC(=O)c1ccc(Br)o1 (stereo not given)	-3.4	0.4	0	-0.8%	7	-3
CC1(C(=O)Nc2cccc3cccnc23)CCN1Cc1ccccc1OC(F)F (stereo not given)	-0.9	0.7	2	4.7%	10	4
O=C(/C=C/c1ccco1)NC(=S)Nc1ccc(N2CCCC2)cc1	7.8	0.8	?	12%	-21	6
CCc1noc(C)c1C(=O)Nc1nc(-c2cccs2)cs1	-1.5	1.9	-1	7.4%	-1	-68
Cc1ccc(-c2nnc3n2N=C(c2ccc(Br)cc2)CS3)cc1	0.9	1.4	-1	2.9%	-9	-3
Cc1csc2nc(CNS(=O)(=O)c3cccnc3)cn12	-1.9	1.2	-1	-4.7%[38.3 µM]	8	-2
On1c(-c2ccc(Cl)cc2Cl)nc2ncccc21	-1.1	-0.1	10	4.0%	3	-2
CC(=O)c1cccc(OCc2cc(C(=O)N(C)Cc3nccs3)no2)c1	-0.6	-0.3	-2	1.3%	-1	-3
CCC(C)C(=O)C(=O)N1CCC(n2nccc2NC(=O)CCOc2ccccc2)CC1 (stereo not given)	-3.3	-0.2	7	0.5%	8	-3
CCN(CC(=O)NC1CCS(=O)(=O)C1)C(=O)c1ccc(OC)c([N+](=O)[O-])c1 (stereo not given)	-0.5	4.3	5	0.5%	-1	-1
O=C(Nc1ccc(Cl)cc1)c1nc[nH]c1C(=O)NCc1ccccc1	-4.2	1.9	2	4.5%	-5	-10
CC1CN(c2oc(-c3ccccc3Cl)nc2C#N)CC(C)O1 (stereo not given)	-4.0	-0.7	1	22%	0	3

Some of these compounds in order of the D2 ag value, rising.
smiles | D2 ag
CCC(=O)N1CCCC1(C)C(=O)Nc1ccc2nc(C)ccc2c1 (stereo not given) | -2.9
On1c(-c2ccc(Cl)cc2Cl)nc2ncccc21 | -1.1
CC1(C(=O)Nc2cccc3cccnc23)CCN1Cc1ccccc1OC(F)F (stereo not given) | -0.9

The list goes on.
SMILES	D2 ag	TRPML1 agonist	Six1-Eya2 blk	PINK1 expr mod	CtBP-E1A inh	D2 PAM
O=C(Nc1cccc(S(=O)(=O)NC2=NCCC2)c1)c1cc(F)c(F)c(F)c1F	-1.4	-1.1	-2	1.3%	4	-20
CCOC(=O)C1CCN(S(=O)(=O)c2ccc3c(c2)CCN3C(C)=O)CC1	0.6	-0.6	1	2.6%	0	-1
O=C(CCCCCN1C(=O)CCC1=O)Nc1ccc(Cl)c(C(F)(F)F)c1	6.4	0.2	5	-4.2%[38.3 µM]	4	-6
CC(=O)c1sc2ccccc2c1OC(=O)c1ccco1	-0.9	-1.8	-12	0.9%	0	-9
CCCCCOC(=O)CSc1n[nH]c(=O)[nH]c1=O	1.4	-0.2	10	0.1%	8	9
Cc1cc(C)c2c(CN3CCN(C)CC3)cc(=O)oc2c1	-1.2	0.6	2	-5.5%[38.3 µM]	-5	-4
C#CCNC(=O)C[C@@H]1C[C@@]2(C(=O)OC)CCCCC=C2N(Cc2cccc3ccccc23)C1=O	·	-1.2	-11	-0.2%	-6	·
COc1ccc(C(=S)N2CCOCC2)cc1OC(=O)c1cc(OC)c(OC)c(OC)c1	-6.9	0.9	-10	2.9%	-14	-1
Nc1nc(N)c2c(n1)CCCC2	-4.8	-0.2	6	0.7%	6	-6
O=C(CNC(=O)c1ccc(OC(F)F)cc1)NC1CCCc2ccccc21 (stereo not given)	-3.7	1.1	-4	0.8%	-4	-11
COc1ccccc1N1CC(C(=O)Nc2ccc(N3CCOCC3)cc2)CC1=O (stereo not given)	-6.0	0.6	5	-1.6%	-2	-2
CN(C/C=C/c1ccccc1)C1CCCCC1	0.9	0.6	5	0.8%	0	-6
COc1ccccc1CN1CCNC(=O)C1CC(=O)NC1Cc2ccccc2C1 (stereo not given)	-3.3	0.7	0	-0.3%	-2	-1
O=C1CSC(c2cn(-c3ccccc3)nc2-c2cc3ccccc3o2)N1Cc1ccccc1 (stereo not given)	-8.1	2.5	-9	3.1%	0	-31
Cc1ccn2c(=O)c(NC(=O)c3ccc4c(c3)OCO4)c(C)nc2c1	-2.0	-0.2	8	-0.1%	-5	-13

Entries of single compounds, looked up by structure. Screens in order: D2 ag, TRPML1 agonist, Six1-Eya2 blk, PINK1 expr mod, CtBP-E1A inh, D2 PAM
`COc1ccccc1CN1CCNC(=O)C1CC(=O)NC1Cc2ccccc2C1` (stereo not given) in the list: -3.3, 0.7, 0, -0.3%, -2, -1
`O=C(CCCCCN1C(=O)CCC1=O)Nc1ccc(Cl)c(C(F)(F)F)c1` in the list: 6.4, 0.2, 5, -4.2%[38.3 µM], 4, -6
`COc1ccccc1N1CC(C(=O)Nc2ccc(N3CCOCC3)cc2)CC1=O` (stereo not given) in the list: -6.0, 0.6, 5, -1.6%, -2, -2
`O=C1CSC(c2cn(-c3ccccc3)nc2-c2cc3ccccc3o2)N1Cc1ccccc1` (stereo not given) in the list: -8.1, 2.5, -9, 3.1%, 0, -31

(more compounds)
SMILES	D2 ag	TRPML1 agonist	Six1-Eya2 blk	PINK1 expr mod	CtBP-E1A inh	D2 PAM
CC(Oc1ccc(Cl)cc1Cl)C(=O)NNC(=O)C(=O)N1CCCC1 (stereo not given)	-1.6	0.7	-8	2.8%	0	-3
CC(C)(C)c1cnnn1-c1ccc([N+](=O)[O-])cc1	-1.0	-1.2	-1	-1.2%	0	3
Cc1nn2cc(-c3ccc(Cl)cc3)cnc2c1Br	-3.3	-0.3	6	3.9%	-4	-4
CC1CCCN(C(=O)Cn2c(=O)oc3cc(S(=O)(=O)N4CCCCC4)ccc32)C1 (stereo not given)	1.6	-0.6&-0.3	0	1.3%&-0.5%	7	-5
O=C(COC(=O)c1ccccn1)NC1CCCCC1	0.2	0.1	-2	0.6%	-3	5
COc1ccc(-c2noc(-c3ccccc3C(=O)N3CCOCC3)n2)cc1	-0.8	-0.5	0	8.4%[38.3 µM]	0	-6

Gathered by group: the compounds so far containing a COOH group.
SMILES	D2 ag	TRPML1 agonist	Six1-Eya2 blk	PINK1 expr mod	CtBP-E1A inh	D2 PAM
C#CCN1C(=O)S/C(=C\c2ccc(-c3ccc(C(=O)O)cc3C)o2)C1=O	1.6	0.5	-15	-1.4%	0	5
CC(C)COC(=O)Nc1ccc(C(=O)O)cc1	-1.8	-0.3	2	?	9	-4
O=C(NC(Cc1ccccc1)C(=O)O)/C(=C\c1ccccc1)NC(=O)c1ccc(Br)o1 (stereo not given)	-3.4	0.4	0	-0.8%	7	-3

Screening data (PubChem)
